# Sa growth inh = inhibitors of Staphylococcus aureus growth at 42 °C | S. aureus RN4220 growth, OD600, 20 h; hits give low values | relative growth, % (no concentration beside the values) | 0.53% of 170,000 active;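 active = growth at 42 °C up to 50% and 20 or more points under that at 30 °C, or under 10% at both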;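 note: 300 nL library stock went into each well; scaled to the means of positive and negative controls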
# HCMV UL50-53 inh = disrupts HCMV UL50-UL53 complex binding | HTRF UL50-UL53 interaction, normalized percent inhibition | AID 1918969 | 0.15% of 190,000 active | inhibition, % (test concentration not listed);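 active = both replicates at 50% or more, plus weaker picks with an unusually low signal ratio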;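 note: stock transfer was 100 nL into about 20 µL; 0% = negative control wells and 100% = wells with untagged competitor protein; inactives centre near -12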
# GIV Gai3 FP = inhibitors of GIV GBA-motif binding to rat Galpha-i3; Galpha-i3/FITC-GIV peptide fluorescence polarization, 90 min; hits give low values; scaled: aluminum fluoride 0%, vehicle 100%; percent of control (FP), % (concentration not given with the values); 0.42% of 210,000 active;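 active = replicate mean at 85% of control or lower, very high polarization wells dropped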;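 note: wells of about 15 µL received 100 nL stock; the first replicate is given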
# Target sequence (P08753 whole entry, looked up): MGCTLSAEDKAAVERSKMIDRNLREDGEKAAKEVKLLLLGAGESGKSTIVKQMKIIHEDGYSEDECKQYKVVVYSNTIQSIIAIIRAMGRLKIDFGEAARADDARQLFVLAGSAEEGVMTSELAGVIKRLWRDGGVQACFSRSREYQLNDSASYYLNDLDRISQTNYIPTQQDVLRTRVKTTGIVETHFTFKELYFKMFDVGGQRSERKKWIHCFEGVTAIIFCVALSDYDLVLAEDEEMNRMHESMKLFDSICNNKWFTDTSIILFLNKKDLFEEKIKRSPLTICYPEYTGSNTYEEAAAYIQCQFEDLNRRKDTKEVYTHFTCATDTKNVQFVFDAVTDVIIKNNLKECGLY
# Sa growth inh second temp = further read-out of Sa growth inh, marked with its call; relative growth, %; measured here: growth at 30 °C;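 optical density after 20 h as mean of two plates; 100% = untreated growth and lower means inhibition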
# Starred values were filed as active, the others as inactive; . = no result given; & = joins results of further samples. This is a random part of the collection, and some 0.83% of all compounds hit somewhere here.
SMILES,Sa growth inh,Sa growth inh second temp,HCMV UL50-53 inh,GIV Gai3 FP
O=C(CN1C(=O)N(c2ccc(Cl)cc2)S(=O)(=O)c2ccccc21)N1CCCc2ccccc21,119,98,.,100
COC(=O)c1ccccc1NC(=O)Cn1c(=O)n(-c2ccc(C)cc2)c(=O)c2ccccc21,103,91,6,102
O=C1CC(c2ccccc2)Cc2[nH]c(=O)c(C(=O)Nc3ccc4c(c3)OCCO4)cc21 (stereo not given),.,.,-15,101
COc1ccc(OC)c(CNC(=O)c2cc3ccc4cccnc4c3[nH]2)c1,97,85,.,109
Cc1ccc(S(=O)(=O)NCCc2cc3ccc(C)cc3[nH]c2=O)cc1,133,86,.,100
CCc1nc(-c2cc(S(=O)(=O)NC)ccc2OC)no1,.,.,-34,104
O=[N+]([O-])c1ccc(S(=O)(=O)Nc2cccc(-c3cn4ccccc4n3)c2)cc1,.,.,-52,104
CN(C)c1ncc2c(=O)n(C)ccc2n1,.,.,-25,104
CCOC(=O)C1=C(CN2CCc3ccccc3C2)NC(=O)NC1c1ccc(OC(C)C)cc1 (stereo not given),78,73,-5,104
Cc1ccccc1CSc1nc2ccccc2n2c(C)nnc12,.,.,-45,103
S=c1[nH]ccn1-c1ccc(Cl)cc1,69,73,-30,.
O=C(CSc1nnc(-c2ccccc2)o1)NC(=O)Cc1ccccc1,115,90,-17,.

# Filtered by structure: the entries above with a halogen.
SMILES,Sa growth inh,Sa growth inh second temp,HCMV UL50-53 inh,GIV Gai3 FP
O=C(CN1C(=O)N(c2ccc(Cl)cc2)S(=O)(=O)c2ccccc21)N1CCCc2ccccc21,119,98,.,100
S=c1[nH]ccn1-c1ccc(Cl)cc1,69,73,-30,.

# Continuation.
SMILES,Sa growth inh,Sa growth inh second temp,HCMV UL50-53 inh,GIV Gai3 FP
Cc1oc(-c2ccc(C(=O)NCCc3ccccc3)cc2)nc1CN1CCc2ccccc21,.,.,-5,114
O=c1c(S(=O)(=O)c2ccc(F)c(F)c2)c[nH]c2c(F)c(Cl)ccc12,.,.,-34,101
O=C(NCCCN1CCN(Cc2c(F)cccc2Cl)CC1)c1cccc(C(F)(F)F)c1,118,85,-14,107
Cc1sc(-c2noc(C3CC3)n2)cc1S(=O)(=O)N1CCC(C(=O)NC2CCCCC2)CC1,.,.,-4,103
CN(C(=O)c1cc(=O)n(C)c2c1c(=O)n(C)c(=O)n2C)C1CCCCC1,.,.,10,109
COc1ccc(-c2nc(Cn3c(=O)oc4ccccc43)no2)c(OC)c1,.,.,-28,113
COc1ccc(NC(=O)Cn2c(=O)n(-c3cccc(C)c3)c(=O)c3c2c2cc(C)ccc2n3C)cc1Cl,98,90,0,100
O=C1CC(c2ccc(Cl)cc2)c2c(-c3ccccc3)nn(-c3ccccc3)c2N1 (stereo not given),.,.,-20,100
CCc1ccc(Nc2ncnc3sc(C)cc23)cc1,91,79,.,102
N#CCCn1cc(/C=N/NC(=O)c2ccncc2)c(-c2ccc(F)cc2)n1,67,78,-45,.
CCONC1=NCC(C)S1 (stereo not given),86,96,4,.
O=C(Nc1ccccc1)NC1CS(=O)(=O)CC1NC(=O)Nc1ccccc1 (stereo not given),99,91,1,.
O=C(Nc1cccc(-c2nnc(-c3ccco3)o2)c1)C(c1ccccc1)c1ccccc1,90,64,2,.
CCOCCCNC(=O)c1ccc2c(c1)N(Cc1ccccc1C)C(=O)c1ccccc1S2=O (stereo not given),.,.,-18,99
CN(C)c1nc(=S)nc(NCc2ccccc2)[nH]1,102,96,-10,105
N#CC1(c2cccc(Br)c2)C(=O)Nc2ccccc21 (stereo not given),93,100,12,.
Cc1ccccc1-c1noc(N2CCC(C(=O)NC3CCCCC3)CC2)n1,.,.,1,104
COc1ccc(CNC(=O)COc2cc(C)c3c(-c4cccc(C)c4)nn(-c4ccccc4)c3n2)cc1,.,.,13,103
CCOC(=O)Cn1cnc2ccccc2c1=O,112,86,-13,.
COc1ccc(C(=O)CCC(=O)Nc2ccccc2F)cc1,93,75,-13,101
CN(C)CCc1cc2c(c3c1ccc1ccccc13)OCO2,110,-1,.,100
CCc1ccccc1NS(=O)(=O)c1ccc2[nH]cc(C(=O)NCC3CCCO3)c(=O)c2c1 (stereo not given),102,77,.,105
CC1=C(C(=O)Nc2ccccc2)C(c2ccccn2)C(C(=O)Nc2ccccc2)=C(C)N1,108,90,-5,.
CC(=O)N1CCc2cc(S(=O)(=O)NC(Cc3ccccc3)C(=O)NCc3ccccc3Cl)ccc21 (stereo not given),109,85,-7,108

# Two entries drawn at random from those above, as already listed:
SMILES,Sa growth inh,Sa growth inh second temp,HCMV UL50-53 inh,GIV Gai3 FP
CN(C)c1nc(=S)nc(NCc2ccccc2)[nH]1,102,96,-10,105
Cc1ccccc1-c1noc(N2CCC(C(=O)NC3CCCCC3)CC2)n1,.,.,1,104

# New compounds follow:
SMILES,Sa growth inh,Sa growth inh second temp,HCMV UL50-53 inh,GIV Gai3 FP
Cc1ccc(Nc2sc(C(=O)c3ccc(F)cc3)c(N)c2S(=O)(=O)c2ccc(C)cc2)cc1,117,112,.,104
CC(C)(C)c1nnc(Nc2ccccc2)[nH]c1=O,.,.,-36,103
O=C(CCn1c(=O)c2cccn2c2cccnc21)N1CCN(c2ccc(F)cc2)CC1,84,75,.,104
Cc1nc(C)c(C(=O)O)c(-c2ccc(F)cc2)c1C(=O)O,101,94,4,.
Cc1ccc(-n2nc(N3CCN(C(=O)CCn4nc(C)cc4C)CC3)ccc2=O)cc1,.,.,-57,101
BrCc1cn(-c2ccccc2)nc1-c1ccccc1,95,102,16,.
NC(=O)c1ccc(CN2CCc3ccccc3C2)cc1,104,89,-13,.
Cc1cccc[n+]1C1[C@@H](c2cccnc2)C(C#N)=C([S-])N[C@]1(C)O (stereo not given in full),86,98,-25,.
Cc1cccc(NC(=O)c2cc(S(=O)(=O)N3CCCCCC3)cn2C)c1C,74,93,.,99
CCCCc1ccc(NC(=O)CS)cc1,128,96,9,107
O=C(Cn1cnc2ccccc21)NN=C1CCCCCC1,75,96,-25,.
CN(Cc1cc(=O)n2ccsc2n1)C1CCCCC1,106,94,-31&-29,104&105
Cc1nc(-c2ccc(Cl)cc2)sc1CCNC(=O)COc1ccc(F)cc1,.,.,-6,102
CC1=C/C(=N\NC(=S)Nc2ccc(F)cc2)CC1,100,73,-16,.
CCC(=O)N1c2ccccc2CC1C(=O)NCCc1ccc(OC)cc1OC (stereo not given),94,92,.,96
CC(O)c1nc2ccccc2n1CCCCOc1ccccc1 (stereo not given),.,.,1,101
CCc1cc2c(cc3c(=O)n(CC(=O)N4CCCCC4)ncn32)s1,103,78,-10,108
CCN1CCCC1CNC(=O)Cn1cccc1C(=O)c1ccccc1 (stereo not given),103,88,8,107
O=C1NC(=O)N(C2CCCCC2)C(=O)/C1=C\C=C\c1ccco1,111,89,4,163
Cc1cc(C)n2nc(SCC(=O)Nc3ccccc3)nc2n1,98,87,-4,104
CCc1cc2c(=O)c(-c3nc4ccccc4[nH]3)coc2c(CN2CCCC(C)C2)c1O (stereo not given),91,85,.,105
COC(=O)CC1=C(C)C(=O)CC2C(C)(C)CCC[C@]12C (stereo not given in full),99,90,-22,.
O=C(O)C1(c2ccccc2)CCCC1,105,90,-11,104
O=c1cc(-c2ccccc2)nc2nc[nH]n12,95,84,-17,105

# Rewritten with two lines to a compound: two of the compounds above
# Every second line gives: Sa growth inh	Sa growth inh second temp	HCMV UL50-53 inh	GIV Gai3 FP
- CCc1cc2c(=O)c(-c3nc4ccccc4[nH]3)coc2c(CN2CCCC(C)C2)c1O (stereo not given)
→ 91	85	.	105
- CC(O)c1nc2ccccc2n1CCCCOc1ccccc1 (stereo not given)
→ .	.	1	101

# (more compounds)
SMILES,Sa growth inh,Sa growth inh second temp,HCMV UL50-53 inh,GIV Gai3 FP
Cc1noc(C)c1S(=O)(=O)N1CCN(c2cc(-c3ccccc3)ncn2)CC1,.,.,-33,105
CCOc1cc2sc(N3CCC(C(=O)Nc4ccccc4C(=O)OC)CC3)nc2cc1Br,96,91,-24,98
COc1ccc(CNC(=O)C(C)Sc2nc(-c3ccccc3)cc(C(F)(F)F)n2)cc1 (stereo not given),105,100,0,99
COc1ccc(C)cc1NC(=O)C1CCC(CNS(=O)(=O)c2ccc3c(c2)CCCC(=O)N3)CC1 (stereo not given),108,89,.,103
COc1cccc(NC(=S)N(CCN(C)C)C(C)c2cccnc2)c1 (stereo not given),95,87,-36,97
COc1ccc(C2CC(=O)c3cc(-c4nc(-c5cccc([N+](=O)[O-])c5)cs4)c(=O)n(-c4ccccc4C)c3C2)cc1 (stereo not given),97,90,25,114
CCOC(=O)CS(=O)(=O)c1nc(-c2ccccc2)cc(C(F)(F)F)n1,27,-1,.,100
CCOC(=O)c1ccc(-c2ccc(C3Nc4ccccc4-c4nnc(SCC)nc4O3)o2)cc1 (stereo not given),90,84,-56,110
O=C(COC(=O)c1ccc(Br)cc1)NCc1ccccc1,97,93,-7,.
CCS(=O)(=O)N1CCN(CC2CC3C=CC2C3)CC1 (stereo not given),94,94,-19,107
Cc1ccc(-n2nc(C)c3c(C(=O)Nc4cccnc4)cc(C)nc32)cc1,97,92,-28,108
CCOC(=O)C1C(C)=NC(=O)NC1/C=C/c1ccccc1 (stereo not given),95,101,-1,96
CCc1ccc(NC(=O)c2cc3c([nH]c2=O)CC(C)(C)CC3=O)cc1,93,86,-9&5,98&98
O=C(Cn1nc(Cc2ccncc2)c2ccccc2c1=O)NCCCN1CCCCC1,92,86,.,103
COc1ccc(-c2nc3cc4c(cc3o2)Oc2ccccc2N4)cc1,92,69,-20,115
COc1ccc2c(CNCC3CCCO3)c(C(=O)O)n(Cc3ccc(C)cc3)c2c1 (stereo not given),96,93,.,98
COc1cccc(CNC(=O)N2Cc3cccn3-c3ccccc32)c1,.,.,0,101
Cc1nc(SCCOc2ccccc2F)[nH]c(=O)c1Cc1ccccc1,99,86,-20,105
COc1ccc(N2CCN(C(=O)c3cnc4sccn4c3=O)CC2)cc1,.,.,20,106
O=C1NN=C(c2ccccc2)CC1c1c[nH]c2ccccc12 (stereo not given),114,62,.,100
O=C1/C(=C\c2ccccc2)SC(=S)N1CNc1ccccc1,92,41,.,98
Cc1onc(C(=O)NN)c1-c1csc(COc2ccc(Cl)cc2)n1,114,101,-3,100
Cc1cc(=O)oc2c(/C=N\NC(=O)c3ccc(Br)cc3O)c(O)ccc12,80,56,-19,274
CCOc1ccc(Cn2c(CNS(=O)(=O)c3ccc(CC)cc3)nc3cccnc32)cc1,80,92,.,107

# Ordered by SMILES length (highest first): some entries from above
SMILES,Sa growth inh,Sa growth inh second temp,HCMV UL50-53 inh,GIV Gai3 FP
COc1ccc2c(CNCC3CCCO3)c(C(=O)O)n(Cc3ccc(C)cc3)c2c1 (stereo not given),96,93,.,98
COc1cccc(CNC(=O)N2Cc3cccn3-c3ccccc32)c1,.,.,0,101
O=C1/C(=C\c2ccccc2)SC(=S)N1CNc1ccccc1,92,41,.,98

# The results go on.
SMILES,Sa growth inh,Sa growth inh second temp,HCMV UL50-53 inh,GIV Gai3 FP
O=C(CN1CCN(Cc2ccccc2)CC1)NCCc1ccccc1,94,102,11,114
COc1ccccc1N=c1oc2ccc(Cl)cc2cc1C(N)=O,112,94,10,.
CCOc1ccc(CCNC(=O)c2ccc(-c3nc(CSc4ccc(C)cc4)c(C)o3)cc2)cc1,126,89,.,104
CC1(C)CC(=O)c2c(Nc3ccccc3)noc2C1,84,90,.,101
CN(CC(O)COCc1ccccc1F)C1CCCCC1 (stereo not given),89,99,0,.
CCOc1ccccc1NC(=O)N1CCCn2nc(C)cc21,89,79,.,104
Cc1noc(C)c1CSc1nc2[nH]ncc2c(=O)n1-c1ccccc1,.,.,-5,101
Cc1ccc(S(=O)(=O)c2cn(CC(=O)Nc3ccccc3)c3cc4c(cc3c2=O)OCO4)cc1,101,88,-6,102
Cn1c(=O)c2cn3c(c2n(C)c1=O)C(c1cc(Cl)ccc1O)Nc1ccccc1-3 (stereo not given),.,.,10,106
COc1ccc(/C=C2\CCc3ccccc3C2=O)cc1COc1ccc(F)cc1,116,92,.,108
CCC(C)NC(=O)c1ccc(CS(=O)Cc2ccc(C)cc2)o1 (stereo not given),89,88,.,102
CCCN1CCN(c2ncnc3sc(C(=O)NC4CCCC4)c(C)c23)CC1,.,.,-29,99
Cn1c(C(=O)NCCCN2CCCC2)cc2c(=O)[nH]c3ccccc3c21,105,96,.,109
CCOC(=O)N1CCN(C(=O)c2ccc(S(=O)(=O)c3ccc(C)cc3)c(NC(C)=O)c2)CC1,100,104,-6,114
Cc1ccc(/C=C2\C(=O)ON=C2c2ccccc2)o1,91,86,-36,102
CC(C)(C)CC(C)(C)NC(=O)Nc1cccc(Cl)c1,55,67,-2,100
COc1cccc(C(=O)Oc2cccc(-n3cnnn3)c2)c1,.,.,6,102
CC1=NN(c2ccccc2)C(=O)C1C(=O)c1ccccc1Br (stereo not given),106,89,.,103
Cc1cc(C(F)(F)F)nc2sc(C(=O)c3cccc(Cl)c3)c(N)c12,79,75,.,154
O=S(=O)(c1ccc(NCCc2c[nH]c3ccccc23)nn1)C1CCCCC1,.,.,-3,101
NCC(c1ccccc1)c1ccc2c(c1)OCCO2 (stereo not given),104,97,1,109
CCOc1ccc(CNC(=O)c2ccc(NC(=O)c3nsc4ccccc34)cc2)cc1,100,85,.,103
CCCn1c(=O)n(C)c(=O)c2c(SCC(=O)N3CCCC3=O)nc(C(C)C)nc21,100,86,-23,.
COc1ccc(S(=O)(=O)NC(C)C)cc1-n1cnnn1,108&97,93&89,-15,108&100
